# Vif A3G – HIV-1 Vif–A3G interaction blockers – biochemical, TR-FRET, GST-Vif 1-94, biotin-A3G peptide, dose response retest, primary screen (AID 1117319). 260,000 compounds, 0.57% hits. TR-FRET GST-Vif / biotin-A3G peptide binding; higher % means a stronger effect; test concentration not given here; strong numbers were not always called active. inhibition, %; hits with a dose series show IC50 in µM;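 active means above the screen mean plus three standard deviations and confirmed in dose response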;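 further: Vif residues 1-94 fused to GST binding biotinylated APOBEC3G peptide 110-148; 0% = full assay without inhibitor and 100% = GST in place of GST-Vif; retest series ran down from 100 µM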
# Ecoli rRNA inh – selective bacterial rRNA inhibition in E. coli; GFP signal change (wild-type ribosome), % (test concentration not listed); 350,000 compounds, 1.6% hits; E. coli WT GFP vs humanized-ribosome RFP mutants, fluorescence, 24 h; active compounds read low; DMSO median 0, no signal -100;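 active means significant combined selectivity score with lowered wild-type GFP, culture density cut under 30%, mutant RFP and density less affected; inactive means any of these conditions unmet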; further: one replicate is shown; some compounds called inactive have numbers as strong as hits
# AF4-AF9 inh – MLL-AF4/AF9 protein interaction inhibition. AlphaScreen, biotin-AF4 peptide binding to FLAG-AF9. AID 651704. 350,000 compounds, 0.47% hits. P42568. inhibition, % at 10 µM;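 active means every replicate reaching a set inhibition limit, whatever the replicate mean, cut at about 25% in these data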;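 further: 0% = plate neutral control median and 100% = total signal loss; the record names both 10 and 1 µM as test concentration; the first replicate is given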
# Target sequence (P42568 whole entry, looked up): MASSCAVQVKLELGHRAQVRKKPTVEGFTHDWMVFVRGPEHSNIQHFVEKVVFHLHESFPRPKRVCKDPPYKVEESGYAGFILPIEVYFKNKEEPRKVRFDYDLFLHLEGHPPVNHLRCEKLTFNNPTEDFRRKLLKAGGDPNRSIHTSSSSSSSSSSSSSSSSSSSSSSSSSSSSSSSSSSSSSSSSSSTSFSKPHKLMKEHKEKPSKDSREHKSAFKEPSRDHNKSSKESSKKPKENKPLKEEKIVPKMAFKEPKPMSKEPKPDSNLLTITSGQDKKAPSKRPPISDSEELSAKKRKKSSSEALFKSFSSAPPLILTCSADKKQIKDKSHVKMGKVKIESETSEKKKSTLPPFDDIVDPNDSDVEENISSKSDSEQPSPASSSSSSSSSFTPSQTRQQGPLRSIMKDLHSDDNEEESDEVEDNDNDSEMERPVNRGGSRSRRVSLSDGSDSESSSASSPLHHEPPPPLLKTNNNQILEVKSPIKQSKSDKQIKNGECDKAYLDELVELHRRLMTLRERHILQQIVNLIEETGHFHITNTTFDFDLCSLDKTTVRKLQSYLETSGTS
# FGF22 binding – FGF22 (human) thermal shift binding; recombinant FGF22 thermal shift, SYPRO orange fluorescence; percent of sucrose octasulfate shift, DMSO zero; 340,000 compounds, 1.5% hits; Q9HCT0; AID 651658; calls only at 9.99 µM;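 active means melting point raised past a set limit in the mean and every replicate; three in four hits are not shown here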
# Target sequence (Q9HCT0 whole entry, looked up): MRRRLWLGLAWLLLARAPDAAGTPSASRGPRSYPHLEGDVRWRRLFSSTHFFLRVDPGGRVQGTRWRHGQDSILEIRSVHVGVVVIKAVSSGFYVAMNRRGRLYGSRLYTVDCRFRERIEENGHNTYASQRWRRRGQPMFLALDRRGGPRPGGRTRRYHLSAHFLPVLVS
# ALR inh – blocks human ALR sulfhydryl oxidase activity; purified ALR, DTT oxidation, H2O2 HRP-luminol luminescence; P55789; 290,000 compounds, 3.8% hits; AID 485317; inhibition, % (concentration not given with the values);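 active means mean and each replicate at 75% or more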;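 further: stock transfer was 7.5 nL into about 7.5 µL; 0% = neutral wells and 100% = wells with inactivated enzyme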
# E coli growth – E. coli growth inhibition. Escherichia coli growth, OD600, 23 h; active compounds read low. OD600 absorbance (test concentration not listed). 330,000 compounds, 0.21% hits. AID 1053175;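 active means OD600 absorbance below the run mean of sample wells minus 3.6 SD, in any replicate, cut at about 0.56 in these data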;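 further: stock transfer was 300 nL into about 60 µL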
# HNF4A DNA FP – change in binding of human HNF4 alpha to DNA. P41235. HNF4a-FITC DNA binding, fluorescence polarization, 1 h. activity change, % at 10 µM. 360,000 compounds, 0.3% hits; in the data active means activity change above about 30%, passing the limit was not always enough;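 further: controls were the assay level and a saturating level of protein; the project sought stronger binding though the title names inhibitors; some compounds called inactive have numbers as strong as hits; positive values seem to mean higher polarization but the record does not say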
# Ecoli rRNA inh OD600 – also measured in Ecoli rRNA inh; calls as there; OD600 change, %; measured here: OD600 growth;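 optical density of the mix in the first replicate; 0 = DMSO median and -100 = no signal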
# Ecoli rRNA inh RFP – second read-out of Ecoli rRNA inh, no call of its own (marks repeat the call); RFP signal change, %; measured here: RFP humanized mutant strains;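 first replicate; 0 = DMSO median and -100 = no signal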
# The depositor's hits bear a star; i = inactive; . = not tested or not shown. A portion of the library; rates above refer to the full screens.
Molecule	AF4-AF9 inh	Ecoli rRNA inh OD600	Vif A3G	FGF22 binding	Ecoli rRNA inh RFP	Ecoli rRNA inh	HNF4A DNA FP	E coli growth	ALR inh
O=S(=O)(/C=C/c1ccccc1)N1CCN(c2nc(-c3cccnc3)nc3ccccc23)CC1	5.0	12.1	-11.8%	i	-0.3	14.1	0.0	.	-7.1
CCCCOC(=O)c1cccc(NC(=O)CCC(=O)O)c1	.	.	-3.1%	.	.	.	-3.2	0.677	3.5
CCCN1C(=O)c2ccc(C(=O)NC3CCCCC3)cc2C1=O	.	.	1.7%	.	.	.	-5.5	0.749	10.9
O=C(COC(=O)c1c2c(nc3ccccc13)CCN(Cc1ccccc1)C2)Nc1c(F)cccc1F	8.2	-8.6	.	i	7.1	1.9	-2.9	0.67	-10.8
CC(C)OCCCNC(=O)c1ccccc1Oc1ccccc1	-43.9	-6.6	-0.7%	i	-6.8	-12.0	5.6	0.682	-1.4
COc1ccccc1S(=O)(=O)Cc1ccc(C(=O)NCc2cccs2)o1	.	.	-3.0%	.	.	.	1.8	0.667	-16.5
O=C(c1oc(=O)c2ccccc2c1-c1ccccc1)N1CCC(O)CC1	-2.9	1.0	16.1%	i	0.8	-0.1	-4.5	0.752	-14.2
Cn1cc(C(=O)C(=O)NCCc2ccccc2)c2ccccc21	-1.6	2.7	.	i	2.2	9.8	-3.1	0.72	-7.4
COc1ccc(CCNC(=O)Cn2c(=O)[nH]c3ccsc3c2=O)cc1OC	.	4.2	3.6%	.	-4.6	7.3	3.0	0.698	.
CCc1ccc(Nc2nnc(SCC(=O)c3c(N)n(C4CC4)c(=O)[nH]c3=O)s2)cc1	0.9	6.7	-6.9%	i	-1.9	7.1	1.8	0.722	1.8
Cc1ccc(-n2nc3c(N4CCC(C(=O)N5CCN(C)CC5)CC4)nnc(C)c3c2C)cc1	5.9	13.3	.	i	1.9	8.3	8.5	0.67	-6.4
O=c1[nH]ncc(N/N=C\c2ccc(O)cc2O)c1Cl	2.5	-8.4	.	i	-4.3	-8.6	0.8	.	96.5*
Cc1ccc2c(=O)c(C(=O)NCc3cccs3)c[nH]c2c1	1.6	3.3	-12.7%	i	-1.7	1.1	-0.9	0.67	5.3
COc1cc(/C=C2\SC(=S)N(CC(=O)O)C2=O)ccc1OS(=O)(=O)c1ccc(C)cc1	10.9	-14.0*	2.0%	.	5.0*	-17.8*	-6.2	0.596	89.4*
Cc1cc(Br)c(NC(=O)CN2CCCC2)c(Br)c1	-1.4	18.0	.	i	-0.5	4.7	0.2	0.675	.
O=C(NC1CCCN(Cc2ccc(Cl)cc2)C1)c1cnc2ccccn2c1=O (configuration not stated)	0.9	-5.2	.	i	6.6	-6.0	-3.4	0.738	-5.0
CN(C)S(=O)(=O)c1ccc(C(=O)NCCC(=O)N2CCCC2)cc1	-1.7	16.1	-4.1%	i	-1.3	0.1	0.0	0.644	.
CC12CCC(=O)N1C(C(=O)O)Cc1c2[nH]c2ccccc12 (configuration not stated)	.	.	2.8%	.	.	.	-0.8	0.756	-4.8
Cc1ccc(S(=O)(=O)N(CC(=O)NCc2ccco2)C2CCCCC2)cc1	2.7	-16.4*	18.1%	i	4.3*	-28.1*	4.1	0.677	.
O=C(OCC(=O)N1CCN(C(=O)c2ccco2)CC1)c1c(Cl)cccc1Cl	-0.3	.	-0.6%	i	.	.	1.1	0.707	-7.1
Cc1ccc(NS(=O)(=O)c2coc(C(N)=O)c2)cc1F	-3.7	-7.9	.	i	-3.8	-0.3	0.2	0.724	31.8
O=C(Nc1cc(F)c(Br)cc1F)c1ccc(Cl)cc1	-0.6	8.5	-0.5%	i	-1.9	17.7	1.5	0.659	-3.6
COc1cc(C)c(C(C)C)cc1S(=O)(=O)N1CCN(C)CC1	.	.	4.5%	.	.	.	-3.4	0.672	-3.4
O=C(OCC(=O)N1CCCC1)c1cc(F)c(F)cc1Cl	-2.8	6.7	-3.2%	i	-2.7	2.8	-1.3	0.653	-3.8
O=C(Cn1c(-c2ccco2)nc2ccccc21)N1CCCCC1	.	.	-3.1%	.	.	.	2.2	0.703	4.4

# Arranged by SMILES length (descending): some entries from above
Molecule	AF4-AF9 inh	Ecoli rRNA inh OD600	Vif A3G	FGF22 binding	Ecoli rRNA inh RFP	Ecoli rRNA inh	HNF4A DNA FP	E coli growth	ALR inh
O=C(COC(=O)c1c2c(nc3ccccc13)CCN(Cc1ccccc1)C2)Nc1c(F)cccc1F	8.2	-8.6	.	i	7.1	1.9	-2.9	0.67	-10.8
Cc1ccc(-n2nc3c(N4CCC(C(=O)N5CCN(C)CC5)CC4)nnc(C)c3c2C)cc1	5.9	13.3	.	i	1.9	8.3	8.5	0.67	-6.4
COc1ccccc1S(=O)(=O)Cc1ccc(C(=O)NCc2cccs2)o1	.	.	-3.0%	.	.	.	1.8	0.667	-16.5
Cn1cc(C(=O)C(=O)NCCc2ccccc2)c2ccccc21	-1.6	2.7	.	i	2.2	9.8	-3.1	0.72	-7.4
Cc1cc(Br)c(NC(=O)CN2CCCC2)c(Br)c1	-1.4	18.0	.	i	-0.5	4.7	0.2	0.675	.

# Structural class, the entries above with two or more sulfur atoms
Molecule	AF4-AF9 inh	Ecoli rRNA inh OD600	Vif A3G	FGF22 binding	Ecoli rRNA inh RFP	Ecoli rRNA inh	HNF4A DNA FP	E coli growth	ALR inh
COc1ccccc1S(=O)(=O)Cc1ccc(C(=O)NCc2cccs2)o1	.	.	-3.0%	.	.	.	1.8	0.667	-16.5
CCc1ccc(Nc2nnc(SCC(=O)c3c(N)n(C4CC4)c(=O)[nH]c3=O)s2)cc1	0.9	6.7	-6.9%	i	-1.9	7.1	1.8	0.722	1.8
COc1cc(/C=C2\SC(=S)N(CC(=O)O)C2=O)ccc1OS(=O)(=O)c1ccc(C)cc1	10.9	-14.0*	2.0%	.	5.0*	-17.8*	-6.2	0.596	89.4*

# (next part)
Molecule	AF4-AF9 inh	Ecoli rRNA inh OD600	Vif A3G	FGF22 binding	Ecoli rRNA inh RFP	Ecoli rRNA inh	HNF4A DNA FP	E coli growth	ALR inh
COc1ccc(S(=O)(=O)NCCCN2CCCC2=O)c(OC)c1	-1.0	9.3	0.1%	i	0.8	13.2	-1.3	0.725	-19.5
Cn1c2c(c(=O)n(C)c1=O)C(C(F)(F)F)(C(F)(F)F)N=C(C1CCCCC1)N2	.	.	.	.	.	.	-0.7	0.68	20.7
Cn1cc(/C=C/c2nc3ccccc3c(=O)n2-c2cccc([N+](=O)[O-])c2)c2ccccc21	.	.	-3.9%	.	.	.	6.9	0.705	-5.2
O=C(O)CCCN1C(=O)/C(=C\c2ccc(-c3nc4ccccc4s3)o2)SC1=S	1.4	-3.9	.	i	17.7	0.1	25.6	0.621	93.9*
COc1ccc(/C=C/c2ccc3c(Br)ccc(O)c3n2)cc1	2.6	-2.7	-7.0%	i	-0.3	6.5	9.0	0.691	-21.5
